Compound activity from PubChem.
KCNQ2 block: KCNQ2 potassium channel inhibitors, primary screen, cell-based, CHO-K1, FluxOR thallium flux, B-score (AID 2156); O88943; 20 min; hits give low values; only compounds with negative scores are shown here; some inactives read as strong as hits; B-score at 10 µM; actives 1.1% (n = 310,000);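 active = fluorescence ratio B-score at most minus 3 library SDs, with starting brightness B-score within 2 library SDs, cut at about -5.5 in these data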
Target sequence (O88943 whole entry, looked up): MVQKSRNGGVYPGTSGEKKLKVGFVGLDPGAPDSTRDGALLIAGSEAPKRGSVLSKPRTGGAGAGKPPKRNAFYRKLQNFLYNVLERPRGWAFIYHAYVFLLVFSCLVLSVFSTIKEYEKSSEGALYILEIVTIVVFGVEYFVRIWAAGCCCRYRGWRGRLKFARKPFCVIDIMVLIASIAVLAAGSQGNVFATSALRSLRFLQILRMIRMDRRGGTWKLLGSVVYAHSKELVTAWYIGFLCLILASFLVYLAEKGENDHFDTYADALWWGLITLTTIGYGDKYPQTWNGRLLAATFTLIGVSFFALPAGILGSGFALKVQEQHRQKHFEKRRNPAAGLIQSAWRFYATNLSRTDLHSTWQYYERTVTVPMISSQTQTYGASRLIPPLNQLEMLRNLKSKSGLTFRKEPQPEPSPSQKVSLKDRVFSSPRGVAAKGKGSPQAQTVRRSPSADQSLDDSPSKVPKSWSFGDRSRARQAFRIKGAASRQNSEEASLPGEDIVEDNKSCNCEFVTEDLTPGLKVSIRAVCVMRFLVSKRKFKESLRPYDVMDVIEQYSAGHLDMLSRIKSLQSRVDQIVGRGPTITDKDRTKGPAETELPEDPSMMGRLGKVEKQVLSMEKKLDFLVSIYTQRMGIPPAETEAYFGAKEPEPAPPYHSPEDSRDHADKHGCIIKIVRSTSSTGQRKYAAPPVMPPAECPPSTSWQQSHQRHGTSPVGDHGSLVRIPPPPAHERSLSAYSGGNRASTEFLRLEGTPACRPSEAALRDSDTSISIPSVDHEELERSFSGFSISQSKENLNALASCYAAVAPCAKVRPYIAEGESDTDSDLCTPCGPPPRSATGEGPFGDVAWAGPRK
KCNQ2 block baseline: further read-out of KCNQ2 block, marked with its call; B-score; measured here: initial fluorescence intensity artifact check;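 brightness before thallium and not channel activity; 0 = typical well and far values either way flag optical interference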
An asterisk follows results filed as active; i = inactive. Only part of the results is shown. The share of hits here may be higher or lower than overall.

Results follow in this order: KCNQ2 block baseline, KCNQ2 block
- O=C(O)c1cc2c(s1)CCCC2
→ -0.74, i
- Cc1ccc(NC(=O)C(C)c2ccc([N+](=O)[O-])cc2)cc1Cl (configuration not stated)
→ 0.33, i
- CCOC(=O)N1CCN(CCC(=O)c2ccc(OC)cc2)CC1
→ 3.4, i
- Cc1cccn2c(=O)nc(SCC(=O)Nc3ccc4c(c3)OCO4)nc12
→ -0.33, i
- Cc1sc2nc(CSc3ccccc3)nc(N3CCN(C)CC3)c2c1C
→ 2.1, i
- CCOC(=O)CSc1nc2ccccc2n1CC(=O)NC(C)(C)C
→ 2.8, i
- COc1cc(C2C(C#N)=C(N)Oc3n[nH]c(C)c32)cc2c1OCO2 (configuration not stated)
→ -0.5, i
- C#CCNC(=O)c1cc2sccc2n1C
→ -0.22, i
- CN(C)CCNc1oc(COc2cccc(Cl)c2)nc1C#N
→ 1.9, i
- Cc1cc2nnc(SCC(=O)Nc3ccc(Cl)cc3)n2c(N)n1
→ 3.8, i

Part of the list above in a different format.
CCOC(=O)CSc1nc2ccccc2n1CC(=O)NC(C)(C)C
- KCNQ2 block baseline = 2.8
- KCNQ2 block = i

COc1cc(C2C(C#N)=C(N)Oc3n[nH]c(C)c32)cc2c1OCO2 (configuration not stated)
- KCNQ2 block baseline = -0.5
- KCNQ2 block = i

C#CCNC(=O)c1cc2sccc2n1C
- KCNQ2 block baseline = -0.22
- KCNQ2 block = i

Next compounds
Results follow in this order: KCNQ2 block baseline, KCNQ2 block
- N#Cc1ccc(COC(=O)CSc2nnc(C3CCCCC3)n2N)cc1
→ -0.06, i
- N#Cc1ccccc1NC(=O)C(=O)NCCCN1CCCC1=O
→ 1.8, i
- COC(=O)c1ccn(CC(=O)NC2CCCCC2)n1
→ 2.5, i
- CSc1nsc(SC)c1NC(=O)Nc1ccccn1
→ -0.78, i
- O=C(c1cc(S(=O)(=O)Nc2ccccc2F)c(Cl)cc1Cl)N1CCN(CCO)CC1
→ 0.84, i
- COc1ccc(C2/C=C\CN(C(=O)CC(C)C)CC(=O)N2Cc2ccc(F)cc2)cc1 (configuration not stated)
→ 0.06, i
- O=c1/c(=C\c2cccc(O)c2)sc2nc(-c3ccccc3)c(-c3ccccc3)n12
→ -3.5, i
- COc1ccccc1/C=C/C(=O)OC(C)CN1CCOCC1 (configuration not stated)
→ -0.74, i
- COc1cc(/C=C(\C#N)C(=O)Nc2ccc(C(=O)O)cc2)ccc1OC(=O)c1cccc(F)c1
→ 0.19, i
- CC(C)CCNC(=O)Cn1cc2c(n1)CCCCC2
→ 2.1, i
- Cc1nc2ccc([N+](=O)[O-])cc2c(=O)n1Cc1cccc(F)c1
→ -0.76, i
- COc1ccc(C(=O)OCn2nnc3ccccc3c2=O)cc1OC
→ 0.55, i
- CCOc1ccc(C2c3c(oc4ccccc4c3=O)C(=O)N2CCCN2CCOCC2)cc1OCC (configuration not stated)
→ 0.35, i
- CC(=O)Nc1ccc(NC(=O)CCCc2c[nH]c3ccccc23)cc1
→ -0.03, i
- COC(=O)CN(Cc1ccco1)S(=O)(=O)c1ccccc1
→ 1.1, i
- C=CCn1c(SCC(=O)Nc2c(C)n(C)n(-c3ccccc3)c2=O)nc2sc(C)c(-c3ccccc3)c2c1=O
→ -2.2, i
- Cc1cc(CN(C)C(=O)c2cc(COc3ccc4ncccc4c3)on2)on1
→ 0.3, i
- Oc1ccc(N=Cc2cc(Br)c(N3CCOCC3)o2)cc1
→ 1.2, i
- COc1cc(C(=O)OCCCN(C)C)cc(OC)c1OC
→ 2.9, i
- Cc1csc(NS(=O)(=O)c2ccc(Cl)cc2)n1
→ 1.1, i
- CCOc1ccc(CN(C)C(=O)CNC(=O)c2ccccc2)cc1
→ -0.45, i
- CC/C(C)=N/NC(=O)c1[nH]c2ccc(C)cc2c1-c1ccccc1
→ 0.78, i
- C=CCN1C(=O)c2ccc(C(=O)Nc3ccccn3)cc2C1=O
→ -1.3, i
- COc1ccccc1C1CCN(C(=O)c2ccccc2)CC1
→ 1.8, i
- CCOCCCNC(=O)C1CCN(S(=O)(=O)c2cc(Br)cc3c2N(C(=O)CC)CC3)CC1
→ -0.14, i
- O=C(Nc1nc2ccccc2s1)C1CC(=O)N(c2ccc(Cl)cc2)C1 (configuration not stated)
→ 2.3, i
- COc1ccc(-c2nc3oc4cc(OC)ccc4c(=O)c3c(=O)n2Cc2ccco2)cc1
→ 0.31, i
- COc1ccc(CNC(=O)CN(C(=O)c2csnn2)c2cccc3ccccc23)cc1
→ -1.5, i
- COC(=O)N/N=C/c1ccc(/C=N/NC(=O)OC)cc1
→ 1.8, i
- c1ccc2c(c1)CCc1c-2nc2ccccc2c1N1CCOCC1
→ -0.18, i
- COC(=O)C1CCN(C(=O)C2CCC(=O)N(CCc3cccc(F)c3)C2)CC1 (configuration not stated)
→ 1.5, i
- Brc1ccc(-c2csc(NNC3=NCCCCC3)n2)cc1
→ 1.9, i
- CCOC(=O)C1(CCOc2ccccc2)CCN(Cc2cccc(OC)c2OC)CC1
→ 1.5, i
- O=C(CSc1ccc2nnc(CCNC(=O)c3ccccc3)n2n1)NCc1ccccc1
→ 0.68, i
- CC1=C(C(=O)OCc2ccccc2)C(c2ccc3ccccc3c2)NC(=O)N1CCCC(=O)O (configuration not stated)
→ -0.58, i
- O=C(Nc1cc(Cl)ccc1Cl)c1noc2c1CCCC2
→ 0.47, i
- OCCC1CN(Cc2ccon2)CCN1CCc1ccccc1 (configuration not stated)
→ -0.96, i
- COc1ccc(NC2CCCN(C(=O)c3ccc(OC)o3)C2)cc1 (configuration not stated)
→ 0.58, i
- OC(COCc1ccco1)CN1CCN(C(c2ccccc2)c2ccccc2)CC1 (configuration not stated)
→ -1.3, i
- CSc1nc2ccc3nc(NC(=O)C4COc5ccccc5O4)sc3c2s1 (configuration not stated)
→ -1.9, i

Compound profiles, as listed above. Values in the order: KCNQ2 block baseline	KCNQ2 block
OC(COCc1ccco1)CN1CCN(C(c2ccccc2)c2ccccc2)CC1 (configuration not stated) across the screens: -1.3	i
COc1ccc(NC2CCCN(C(=O)c3ccc(OC)o3)C2)cc1 (configuration not stated) across the screens: 0.58	i
Brc1ccc(-c2csc(NNC3=NCCCCC3)n2)cc1 across the screens: 1.9	i
CSc1nc2ccc3nc(NC(=O)C4COc5ccccc5O4)sc3c2s1 (configuration not stated) across the screens: -1.9	i

Next section.
Results follow in this order: KCNQ2 block baseline, KCNQ2 block
- CCc1ccc(C(=O)Cn2cnc3cc([N+](=O)[O-])ccc3c2=O)cc1
→ -0.08, i
- CSc1nsc(N/N=C/c2ccccc2)c1C#N
→ 0.14, i
- Cc1ccc(OCc2cc(C(=O)NCc3ccc(OC(F)(F)F)cc3)no2)cn1
→ -1.2, i
- O=C(NCCCNC(=O)c1cnccn1)c1cccc(F)c1
→ 1.8, i
- COc1cccc(C2Nc3ccccc3C(=O)N2O)c1O (configuration not stated)
→ 0.68, i
- CCOC(=O)C1(Cc2ccccc2C(F)(F)F)CCN(Cc2ccon2)CC1
→ -0.63, i
- CC1(C)Cc2nc(-c3ccccc3)nc(SCC(=O)N3CCOCC3)c2CO1
→ -0.47, i
- CC(C)CC(NC(=O)C1CCCN1C(=O)OC(C)(C)C)C(=O)NCC(N)=O (configuration not stated)
→ 0.02, i
- Cc1ccccc1NC(=O)C(c1ccccc1)C1CCCC1 (configuration not stated)
→ 1.2, i
- COc1ccc(NS(=O)(=O)c2cn(C)c(=O)n(C)c2=O)c(OC)c1
→ -0.7, i
- CN1CCN(/C=C2\SC(=S)NC2=O)CC1
→ -0.6, i
- CC(=O)N1CCN(c2ccccc2NC(=O)COc2cc(C)cc(C)c2)CC1
→ 0.87, i
- Cc1ccc(/C=C2/C(=O)N(c3ccccc3)C(=S)N2C)o1
→ -0.41, i
- CC(/C=C1\N=C(SCc2ccccc2)SC1=O)=C\c1ccccc1
→ -0.42, i
- CCCN(CC(=O)Nc1ccccc1OC)C(=O)Cc1ccccc1F
→ -0.07, i
- Cc1nc(-c2ccccc2)sc1-c1ccn[nH]1
→ -0.05, i
- Cc1cccc(N2C(=O)/C(=C\c3ccc(C(=O)O)cc3)c3ccccc3C2=O)c1
→ -2.4*, -9.1*
- CC(C)(C(=O)c1ccccc1)/[N+]([O-])=C/c1ccc(Br)cc1
→ -0.51, i
- O=C(CCCN1C(=O)/C(=C/c2cccs2)SC1=S)NNC(=O)c1ccc(F)cc1
→ -1, i
- CN(CCOc1ccc(Cl)cc1)CC(=O)Nc1ccc(OC(F)F)cc1
→ -0.34, i
- Cc1nc2scc(-c3cccs3)c2c(=O)[nH]1
→ -0.11, i
- Cc1cc(C(=O)N(NC(=O)C(C)C)c2ccccc2)cs1
→ 0.06, i
- COc1ccc(-n2ccnc2SCC(=O)NCc2ccc3c(c2)OCO3)cc1
→ 2.4, i
- COc1cc(OC)cc(-c2nc(-c3ccccc3OC)no2)c1
→ -0.12, i
- O=c1[nH]c(SCc2ccccc2)nc2[nH]ncc12
→ -0.92, i
- O=C(CSc1ccc2nnc(-c3ccccn3)n2n1)Nc1ccc(F)cc1
→ 1.2, i
- Cc1ccc(C(=O)N/C(=C/C=C/c2ccccc2)C(=O)NCc2ccco2)cc1
→ -1.5, i
- O=S(=O)(NC1CCSc2ccccc21)c1ccc(Cl)nc1 (configuration not stated)
→ 1, i
- Cc1cc(C)c2cc(CN(Cc3nnnn3C3CCCCC3)CC3CCCO3)c(=O)[nH]c2c1 (configuration not stated)
→ -0.16, i
- CCN1C(=O)/C(=C/N(C)c2ccccc2)OC1=S
→ 2.7, i
- CC(NC(=O)Nc1ccc(Cl)c(Cl)c1)C(c1ccccc1)N1CCOCC1 (configuration not stated)
→ 3.5, i
- Cc1nc2cc(NS(=O)(=O)c3c(C)c(C)cc(C)c3C)ccc2s1
→ -1.1, i
- CCOC(=O)Cn1nc(-c2ccc(F)cc2)cc(Cc2ccccc2)c1=O
→ -0.36, i
- CCSc1nc(-c2ccccc2)c(C#N)c(=O)[nH]1
→ -0.04, i
- N#C/C(=C\c1ccc(OCc2cccc(C(=O)O)c2)cc1)C(=O)NCc1ccco1
→ 0.1, i
- CCOC(=O)c1cnc2c(c(C)nn2C)c1Oc1cc(Cl)cc(Cl)c1
→ 1.6, i
- c1ccc(-n2nnnc2SCc2cn3cccnc3n2)cc1
→ -0.08, i
- CCOc1ccc2nc(COC(=O)c3cccc([N+](=O)[O-])c3)c(C(C)=O)[n+]([O-])c2c1
→ 0.77, i
- Cn1c(=O)c2c(ncn2CC(=O)N2CCCc3ccccc32)n(C)c1=O
→ -0.5, i
- N#C/C(=C/c1ccc(N2CCOCC2)c([N+](=O)[O-])c1)C(N)=O
→ 0.23, i
- CC(=O)c1c(N2CCN(c3ccccc3)CC2)nc(=S)n(-c2ccccc2)c1C
→ 2.9, i
- Cc1ccc(C(CC(=O)c2ccc(Cl)cc2)C(=O)O)cc1 (configuration not stated)
→ -2, i
- CC(C)(C)C1CCC2(CC1)NC(=S)N(c1ccccc1)N2 (configuration not stated)
→ -0.26, i
- COC(=O)C1=C(C)N(c2cccc(C(C)=O)c2)C(=O)C1
→ 0.83, i
- O=[N+]([O-])c1ccc(-c2nn(-c3ccccc3)cc2/C=N/n2c(-c3cccs3)n[nH]c2=S)cc1
→ -0.87, i
- C=CCSc1cc(C)nc2c(-c3ccccc3)c(C)nn12
→ 1.3, i
- C/C(=N\NC(=O)c1cccc(S(=O)(=O)Nc2cccc(Cl)c2)c1)c1cccs1
→ 0.2, i
- CCOC(=O)C(C(=O)OCC)C(CC(=O)C1CC1)c1ccccc1 (configuration not stated)
→ 0.07, i
- CC(=O)[C@]1(O)Cc2c(O)c3c(c(O)c2[C@@H](O[C@H]2C[C@H](N)[C@H](O)[C@H](C)O2)C1)C(=O)c1ccccc1C3=O
→ 71, i
- Cc1cccc(NC(=O)CSc2nnc(CCC(=O)Nc3ccc(C)c(Cl)c3)n2C)c1
→ 0.19, i

(more compounds)
Results follow in this order: KCNQ2 block baseline, KCNQ2 block
- Cc1cccc(OCCNC(=O)c2ccc(Oc3ccc(C(F)(F)F)cc3[N+](=O)[O-])cc2)c1
→ -0.86, i
- C/C(=N\NC=O)c1ccncc1
→ -0.33, i
- COC(=O)Nc1ccc2c(c1)ncn2C1CCCCC1
→ 2, i
- O=C(Nc1ccccc1F)c1cc(Cl)sc1Cl
→ 1.2, i
- CNC(=S)N(C1=NCC(c2ccc([N+](=O)[O-])cc2)S1)c1ccccc1 (configuration not stated)
→ -3.4, i
- C/C(=N\NC(=O)c1ccc(Cn2cc(Br)cn2)o1)c1cccc(NC(=O)C(C)C)c1
→ -0.92, i
- Cc1cccc(NC(=O)CCNS(=O)(=O)c2cc(Br)cnc2N)c1C
→ -0.05, i
- CN(c1ccc(C(=O)N2CCCCCC2)cc1)S(=O)(=O)c1ccc(Cl)cc1
→ 1.8, i
- O=C(Nc1ccc(Cl)cc1Cl)C1=Cc2ccccc2OC1
→ 0.48, i
- CC1CCCC(C)N1C(=O)COC(=O)Cc1ccc(F)cc1 (configuration not stated)
→ 1.2, i
- CC(=O)OCCN(C)c1cc(SC(C)C)c2nonc2c1[N+](=O)[O-]
→ -1.7, i
- Cc1[nH]c2ccccc2c1/C=C(\C#N)C(=O)NC(C)c1ccccc1 (configuration not stated)
→ -1.2, i
- O=C(Nc1ccc2cn[nH]c2c1)c1ccc(S(=O)(=O)N2CCOCC2)cc1
→ -0.4, i
- CCOC(=O)C1=c2s/c(=C\c3ccncc3)c(=O)n2C(N)=C(C(=O)OC)C1c1ccncc1 (configuration not stated)
→ 1.4, i
- O=C(COC(=O)CCc1c[nH]c2ccccc12)NC(c1ccccc1)c1ccccc1
→ -0.67, i
- CCOC(=O)C(=CNc1ccc(-c2ccco2)c(Cl)c1)C(=O)OCC
→ -0.5, i
- CN1CCN(Cc2c(O)c(Cl)cc3c(-c4ccccc4)cc(=O)oc23)CC1
→ 2.6, i
- Cc1ccc(C)c(N(CC(=O)N(C)C)S(C)(=O)=O)c1
→ -0.46, i
- Cc1cc(C)cc(OC(=O)COc2ccccc2C)c1
→ 0.25, i
- COc1cc(NC(=O)c2ccc(F)cc2)c(OC)cc1NC(=O)CN1CCCCC1
→ 0.16, i
- COc1cc(OC)c(-c2nnc3n(CCc4ccccc4)c(=O)c4ccccc4n23)cc1OC
→ 2, i
